# rRNA inh HTS = inhibitors of bacterial rRNA selective over humanized ribosomes. GFP signal change (wild-type ribosome), % (test concentration not listed). E. coli WT GFP vs humanized-ribosome RFP mutants, fluorescence, 24 h; stronger effect = lower value; DMSO median 0, no signal -100. 350,000 compounds, 1.6% hits. AID 720706;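 active = significant combined selectivity score with lowered wild-type GFP, culture density cut under 30%, mutant RFP and density less affected; inactive = any of these conditions unmet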; note: one replicate is shown; some compounds called inactive have numbers as strong as hits
# FGF22 binding = FGF22 (human) thermal shift binding | recombinant FGF22 thermal shift, SYPRO orange fluorescence; percent of sucrose octasulfate shift, DMSO zero | calls only at 9.99 µM | 340,000 compounds, 1.5% hits;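 active = melting point raised past a set limit in the mean and every replicate; three in four hits are not shown here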
# Target sequence (Q9HCT0 whole entry, looked up): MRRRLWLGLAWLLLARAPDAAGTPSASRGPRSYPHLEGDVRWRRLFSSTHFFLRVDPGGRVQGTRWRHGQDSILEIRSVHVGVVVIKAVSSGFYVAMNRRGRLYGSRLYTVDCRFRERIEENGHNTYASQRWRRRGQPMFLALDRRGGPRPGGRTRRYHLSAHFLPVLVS
# E coli growth = E. coli growth inhibition; OD600 absorbance (test concentration not listed); 330,000 compounds, 0.21% hits; Escherichia coli growth, OD600, 23 h; stronger effect = lower value;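 active = OD600 absorbance below the run mean of sample wells minus 3.6 SD, in any replicate, cut at about 0.56 in these data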;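 note: stock transfer was 300 nL into about 60 µL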
# MLL AF4-AF9 inh = MLL-AF4/AF9 protein interaction inhibition. P42568. AlphaScreen, biotin-AF4 peptide binding to FLAG-AF9. inhibition, % at 10 µM. 350,000 compounds, 0.47% hits. AID 651704;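 active = every replicate reaching a set inhibition limit, whatever the replicate mean, cut at about 25% in these data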;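 note: 0% = plate neutral control median and 100% = total signal loss; the record names both 10 and 1 µM as test concentration; the first replicate is given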
# Target sequence (P42568 whole entry, looked up): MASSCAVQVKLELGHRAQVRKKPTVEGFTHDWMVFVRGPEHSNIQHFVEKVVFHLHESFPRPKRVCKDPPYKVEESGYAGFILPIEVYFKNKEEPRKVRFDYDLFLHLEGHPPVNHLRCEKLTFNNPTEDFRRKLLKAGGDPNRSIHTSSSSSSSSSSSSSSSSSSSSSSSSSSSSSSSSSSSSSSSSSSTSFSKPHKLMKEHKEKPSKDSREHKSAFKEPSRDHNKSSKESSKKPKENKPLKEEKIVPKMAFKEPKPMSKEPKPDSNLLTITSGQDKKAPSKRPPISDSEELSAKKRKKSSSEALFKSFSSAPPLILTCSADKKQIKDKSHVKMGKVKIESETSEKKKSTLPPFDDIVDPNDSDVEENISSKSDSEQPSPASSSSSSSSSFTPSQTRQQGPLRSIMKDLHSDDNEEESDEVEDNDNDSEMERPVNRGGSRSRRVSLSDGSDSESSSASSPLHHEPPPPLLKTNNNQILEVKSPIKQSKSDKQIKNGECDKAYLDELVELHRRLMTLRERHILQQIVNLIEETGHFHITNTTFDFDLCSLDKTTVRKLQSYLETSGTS
# A1 inh = inhibitors of the anti-apoptotic protein A1, read as caspase activation; MEF A1-2A-BIM cells, Caspase-Glo 3/7 luminescence, 3 h; percent of clofoctol response, vehicle zero; caspase activation, % (concentration not given with the values); 330,000 compounds, 0.066% hits; AID 2462;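 active = over half of replicate activation scores above 10%, or exactly half above 10 with the replicate mean above 10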;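 note: wells of about 30 µL received 50 nL stock; many hits fall short of the cut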
# UCH37 inh = blocks the human deubiquitinase UCH37. purified proteasome/UCH37, Ub-AMC cleavage fluorescence. inhibition, % (no concentration beside the values). 330,000 compounds, 0.33% hits. AID 588478;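 active = mean of two replicates above 20%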;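 note: 0% = compound-free wells with enzyme and 100% = wells lacking proteasome; stock transfer was 100 nL into about 20 µL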
# Target sequence (Q9Y5K5 whole entry, looked up): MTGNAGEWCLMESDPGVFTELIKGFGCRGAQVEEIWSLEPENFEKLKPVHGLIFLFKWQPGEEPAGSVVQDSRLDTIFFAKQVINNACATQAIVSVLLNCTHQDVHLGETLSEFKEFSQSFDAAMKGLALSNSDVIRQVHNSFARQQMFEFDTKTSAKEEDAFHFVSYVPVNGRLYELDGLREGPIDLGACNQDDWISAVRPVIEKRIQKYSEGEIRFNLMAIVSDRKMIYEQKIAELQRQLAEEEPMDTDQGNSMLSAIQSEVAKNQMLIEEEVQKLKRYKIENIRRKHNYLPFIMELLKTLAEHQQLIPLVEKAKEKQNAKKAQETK
#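 Material: Human UCH37 enzyme supplied as purified proteasome complex | Schedule: 30 min preincubation with enzyme, 25 min cleavage at room temperature | Detection: AMC fluorescence 355/460 nm | Measure: % inhibition of Ub-AMC cleavage fluorescence | Controls: Wells without proteasome as full block, compound-free enzyme plus substrate as uninhibited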
# T cruzi inh = blocks replication of Trypanosoma cruzi; T. cruzi beta-gal in NIH3T3, luminescence, 90 h; inhibition, % (no concentration beside the values); 300,000 compounds, 1.4% hits;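 active = mean inhibition across valid replicates above about 55%, limit read from the data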;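 note: signal also drops with host cell toxicity which is not excluded here; 0% = plate median of DMSO wells and 100% = zero luminescence signal; higher percent means less beta-gal luminescence so fewer parasites; stock transfer was 50 nL into about 50 µL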
# Beta cell apopt = blocks beta cell apoptosis. 300,000 compounds, 0.8% hits. INS-1E cytokine-induced death, ATP luminescence, 48 h; percent of positive-control rescue, neutral wells zero. protection from apoptosis, % (test concentration not listed);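 active = all replicates at 75% or more, or half of them and the mean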;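 note: 0% = cytokine-treated negative control wells and 100% = positive control rescue; higher means more ATP so stronger rescue from cytokine killing; wells of about 40 µL received 100 nL stock; the first replicate is given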
# rRNA inh HTS OD600 = second read-out of rRNA inh HTS, no call of its own (marks repeat the call); OD600 change, %; measured here: OD600 growth;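 optical density of the mix in the first replicate; 0 = DMSO median and -100 = no signal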
# rRNA inh HTS RFP = further read-out of rRNA inh HTS, marked with its call; RFP signal change, %; measured here: RFP humanized mutant strains;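 first replicate; 0 = DMSO median and -100 = no signal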
# * hit, by the source's call; i = inactive; . = not tested or not shown. Some of the compounds tested; count on the stated rates, not on these rows.
Molecule	rRNA inh HTS	rRNA inh HTS OD600	rRNA inh HTS RFP	FGF22 binding	E coli growth	MLL AF4-AF9 inh	A1 inh	UCH37 inh	T cruzi inh	Beta cell apopt
COc1ccc(N/C(N)=N/c2nc(C)cc(=O)[nH]2)cc1	4	1	-3.7	i	0.65	-20	0.1	3.6	-13	-3
O=c1c(Cc2ccc(Cl)cc2Cl)c(O)ccn1CC(F)(F)F	-24	-51	-7.5	i	0.64	-0.9	-0.5	4.4	-11	-7
CC(C)C[C@@H](CO)N1CCN(Cc2cccnc2)CCC1=O	4	7	-0.1	i	.	-0.8	-0.6	.	0	-8
O=C(NC1CCN(S(=O)(=O)c2ccccc2C(F)(F)F)CC1)c1ccco1	5	13	0.2	i	0.7	-0.6	0.7	4.3	4	-1
Cc1ccc(OCCNC(=O)c2ccc(C)o2)cc1	.	.	.	i	0.69	1.6	1.4	3.5	.	0
Cc1ccccc1CCNC(=O)CCn1ccc2cc(S(=O)(=O)N3CCCC3)ccc21	-22	-19	5.3	i	0.7	2.8	0.8	1.5	3	-1
NC1=NC(=O)/C(=C/c2ccccc2OS(=O)(=O)c2ccc3ccccc3c2)S1	.	.	.	.	0.68	.	-0.6	0.7	-10	-1
COc1ccc(-c2cc3ccccc3[nH]2)cc1	3	-7	1.3	i	0.7	19	-3.9	2.5	4	-1
Cc1oc2c(C)c3oc(=O)c(CCC(=O)NCCCCCC(=O)O)c(C)c3cc2c1C	-14	-9	-2.3	i	0.67	-0.9	0.0	-52	-9	-9
CN1CCC(N(C)C(=O)c2cc(-c3ccccc3Cl)nc3ccccc23)CC1	18	14	0.3	i	0.68	-0.6	-1.4	3.7	.	-1
Cc1c(C(=O)N/N=C/c2ccccn2)nnn1-c1nonc1N	0	4	0.3	i	.	-2.1	0.3	.	-3	-1
Cc1ccnc2ccc(SC(F)(F)F)cc12	9	8	-0.8	i	0.71	-2.6	0.2	1.3	-9	-4
COc1ccc(-c2nc(-c3ccc(Br)o3)no2)cc1OC	3	16	-3.0	i	0.79	4.7	-0.7	6.1	14	-1
CCOC(=O)N1CCN(C(=O)c2ccc3c(=O)n(Cc4ccccc4OC)c(=S)[nH]c3c2)CC1	.	.	.	.	0.67	.	0.8	4.0	-9	-1
CCCC(CCC(=O)Nc1ccn(-c2ccccc2)n1)C(=O)O (centres undefined)	3	-3	-1.4	i	0.64	-0.4	0.7	-0.2	-15	-5

# As entered above:
# Under Beta cell apopt, CCOC(=O)N1CCN(C(=O)c2ccc3c(=O)n(Cc4ccccc4OC)c(=S)[nH]c3c2)CC1 is entered as -1
# Under MLL AF4-AF9 inh, CCCC(CCC(=O)Nc1ccn(-c2ccccc2)n1)C(=O)O (centres undefined) is entered as -0.4
# Under rRNA inh HTS OD600, O=c1c(Cc2ccc(Cl)cc2Cl)c(O)ccn1CC(F)(F)F is entered as -51
# Under rRNA inh HTS, O=C(NC1CCN(S(=O)(=O)c2ccccc2C(F)(F)F)CC1)c1ccco1 is entered as 5

# Next entries follow.
Molecule	rRNA inh HTS	rRNA inh HTS OD600	rRNA inh HTS RFP	FGF22 binding	E coli growth	MLL AF4-AF9 inh	A1 inh	UCH37 inh	T cruzi inh	Beta cell apopt
Cc1ccc(-n2c(SC3CCOC3=O)nc3ccccc3c2=O)cc1 (centres undefined)	.	.	.	.	0.65	.	0.0	-1.4	-7	-1
CC(=O)c1ccc(OCc2cc(C(=O)N(C)C(C)c3nccs3)no2)cc1 (centres undefined)	-4	-6	3.8	i	0.71	-8.8	.	-1.2	-3	.
Cc1cc(=O)[nH]c2c(C)c(N)ccc12	.	.	.	.	0.67	.	.	i	-19	-3
CN1CCN(C(=O)c2ccc3c(c2)N(Cc2ccccc2)CCS3)CC1	.	.	.	.	0.71	.	-0.4	-80	0	-2
Cc1ccc(CN2CCN(C(=O)c3ccncc3)CC2)cc1	18	10	-0.7	i	0.66	0.4	0.3	0.3	6	-5
O=C(CCS(=O)(=O)c1ccc2c(c1)NC(=O)CO2)NCc1ccccc1	8	15	2.8	i	0.68	-7.0	0.5	7.6	6	-5
CCC(=O)Nc1c2c(nn1-c1ccc(F)cc1)CS(=O)C2 (centres undefined)	14	14	4.1	i	0.71	3.1	0.6	2.4	-17	-6
Cc1cccc(C)c1NC(=O)CNC(=O)c1ccccc1OCc1ccccc1	8	9	-2.1	i	0.69	-8.3	1.2	0.6	6	-2
CC(=O)NC1(C(F)(F)F)C(=O)Nc2c1c(=O)n(C)c(=O)n2C (centres undefined)	.	.	.	.	0.73	.	0.3	0.1	.	-3
CCNC(=O)CSc1nc2ccccc2c(=O)n1OC	5	7	-2.0	.	0.72	.	-0.2	-4.6	-7	-2
CC(C)(C)OC(=O)C[C@@H]1C/C=C\C[C@H](CC(=O)N(CCO)Cc2ccccc2)C(=O)N[C@@H](Cc2c[nH]c3ccccc23)COC1=O	14	9	5.4	i	.	.	-2.0	1.4	.	-6
CC(NC(=O)c1cn(C)c2ccc(S(=O)(=O)N3CCCC3)cc2c1=O)c1ccccc1 (centres undefined)	10	11	1.0	i	0.68	-2.9	1.2	8.9	0	0
Cc1ccccc1OCCCN1CCCC1	.	.	.	.	0.69	.	0.7	2.1	8	-2
Cc1ncc(CN2CCCCC2C(=O)Nc2ccc(Oc3ccccc3)nc2)cn1 (centres undefined)	3	6	-0.8	i	0.7	-1.1	-0.4	-3.6	-3	1
O=S(=O)(Nc1ccccc1-c1ccccc1)c1ccccc1	-53	-77	-15	i	0.63	-2.9	.	-0.6	.	.
O=C(COc1cc(Cl)c(Cl)cc1Cl)Nc1ccc([N+](=O)[O-])cc1Cl	-2	-2	-2.1	i	0.65	-2.9	-1.1	5.9	6	-2
Cc1ccc(Cl)c2sc(N3CCN(C(=O)c4ccco4)CC3)nc12	1	1	-0.7	i	0.67	-4.4	-0.2	2.6	10	9
O=C(COc1ccc(Cl)cc1)N1CCCC1	.	.	.	.	0.65	.	0.7	1.9	-5	-3
Cc1ccc(C)c(NC(=O)CN(C)C(=O)c2ccc(S(=O)(=O)N3CCCCCC3)cc2)c1	-4	2	-0.1	i	0.69	-2.7	-1.4	3.3	.	-4
CN1CCN(S(=O)(=O)c2ccc([N+](=O)[O-])cc2)CC1	5	7	-3.9	i	0.63	-2.0	0.4	1.1	-17	.
O=S(=O)(Nc1nc2ccccc2nc1Nc1ccc(N2CCOCC2)cc1)c1cc(Cl)ccc1Cl	9	6	2.0	i	0.71	0.4	-0.2	2.7	50	84*
Cc1ccc(CSCC(Nc2ccc(C(=O)O)cc2[N+](=O)[O-])C(=O)O)cc1 (centres undefined)	5	2	4.2	i	0.69	-4.3	0.6	3.2	-5	-10
COc1cccc(N=Nc2c(N)[nH]n3c(=O)c4c(nc23)CCCC4)c1	5	6	2.8	i	0.66	-1.9	-0.9	7.8	4	22
COc1ccc(N2C(=O)CC(SC(C)C)C2=O)cc1 (centres undefined)	.	.	.	.	0.68	.	-0.3	4.2	-20	-3
COc1ccc(C(=O)CN2C(=O)c3ccccc3C2=O)cc1	20	6	3.8	i	0.67	.	-0.5	4.9	-21	-6
COc1ccc(-c2n[nH]c(=S)n2/N=C/c2cccn2C)cc1	.	.	.	i	.	-3.2	-0.1	.	-3	.
O=C(Nc1ccc(CN2CCCCC2)cc1)c1c(F)c(F)c(F)c(F)c1F	-4	-1	0.2	i	0.69	1.2	0.8	0.8	28	9
O=C1N[C@@H](Cc2ccccc2)[C@@H](c2ccco2)O1	4	9	-13	i	.	1.1	0.3	5.0	-25	-10
O=C(COC(=O)c1cnccn1)Nc1ccc(Cl)cc1	.	.	.	.	0.72	.	1.3	1.1	-9	-8
O=C(COC(=O)C1CCN(c2ccc(C(F)(F)F)cn2)CC1)NCc1ccc(Cl)cc1Cl	-6	-10	1.1	i	0.63	-9.5	0.0	-0.5	-10	1
CCN(CC)c1ccc(S(=O)(=O)N2CCOCC2)cc1NC(=O)Cn1nc(C)c([N+](=O)[O-])c1C	-7	-17	1.7	i	0.69	4.3	0.0	0.5	.	0
CCNC(=O)COc1ccc(CC)cc1	1	-8	-2.9	i	0.72	4.3	0.1	-0.8	-9	-2
CC/C(C)=N\NC(=O)CNC(=O)c1ccc(Cl)cc1Cl	8	8	1.2	i	.	-1.9	-0.2	.	-15	-2
COc1ccc(OC)c(NC(=O)c2ccc(-n3cccn3)nc2)c1	.	.	.	.	0.73	.	2.1	-18	3	-1
O=C(CNS(=O)(=O)c1ccccc1)NCc1cccnc1	7	6	1.5	i	0.68	-1.1	0.6	-0.3	0	-5
COc1ccc(-c2nc3c(-c4ccccc4)cnn3cc2C)cc1F	20	12	1.6	i	0.73	-2.5	0.5	5.6	10	-8
CC(=O)Oc1ccccc1C(=O)N(C1CCCCC1)C1CCCCC1	4	2	-1.3	i	0.68	-1.2	0.5	0.0	33	8
O=C1C(O)CC2c3ccccc3CC3(CCCC3)N12 (centres undefined)	10	-1	9.6	.	0.75	0.5	-0.7	3.1	-6	7
COc1ccc2c(c1)c(CC(=O)OCC(=O)N(C)C)c(C)n2C(=O)c1ccc(Cl)cc1	-3	-26	6.6	i	0.68	-0.5	-0.5	0.6	5	8
COc1cccc(CN2CCCC(C(=O)c3ccc4c(c3)OCO4)C2)c1OC (centres undefined)	3	6	-1.2	i	0.7	-2.5	-1.1	-6.2	36	1
CCN(CC)S(=O)(=O)c1ccc(N2CCc3cc(OC)c(OC)cc3C2)nc1	-6	-12	3.5	i	0.65	0.7	-0.7	-2.8	17	2
O=[N+]([O-])c1ccc2c(c1)/C(=N\O)c1ccccc1-2	-28*	-17*	2.2*	i	.	-1.0	0.3	.	7	12
O=C(/C=C/c1ccccc1)NCCc1c[nH]c2ccccc12	-2	-9	-1.1	i	0.67	2.8	1.2	1.1	36	-7
Cn1c(=O)c2c(nc(NCCOc3ccc(F)cc3)n2C)n(C)c1=O	17	3	-0.4	i	0.69	-0.4	-0.1	-0.6	-2	4
Cc1oc(-c2cc3c(cc2Cl)OCO3)nc1CN1CCCC1c1ccc(F)cc1 (centres undefined)	-27	-30	-0.1	i	0.7	6.6	-0.5	-0.3	6	2
CC1CCCCC1NC(=O)c1nn(C)c(=O)c2ccccc12 (centres undefined)	.	.	.	.	0.73	.	0.0	6.8	-1	1
COc1ccc(CNC(=O)C(=O)c2cn(CC(=O)N3CCCC3)c3ccccc23)cc1	-11	1	1.9	i	0.69	1.5	-0.9	5.7	7	-2

# Full records as entered above:
# `O=C1C(O)CC2c3ccccc3CC3(CCCC3)N12` (centres undefined) reads rRNA inh HTS: 10; rRNA inh HTS OD600: -1; rRNA inh HTS RFP: 9.6; FGF22 binding: .; E coli growth: 0.75; MLL AF4-AF9 inh: 0.5; A1 inh: -0.7; UCH37 inh: 3.1; T cruzi inh: -6; Beta cell apopt: 7
# `Cn1c(=O)c2c(nc(NCCOc3ccc(F)cc3)n2C)n(C)c1=O` reads rRNA inh HTS: 17; rRNA inh HTS OD600: 3; rRNA inh HTS RFP: -0.4; FGF22 binding: i; E coli growth: 0.69; MLL AF4-AF9 inh: -0.4; A1 inh: -0.1; UCH37 inh: -0.6; T cruzi inh: -2; Beta cell apopt: 4

# Compound activity as filed in PubChem BioAssay.
